Vaccinia stage – blocks a specific stage of Vaccinia orthopoxvirus infection. Vaccinia-infected cells, mCherry/Venus stage reporter fluorescence; stronger effect = lower value; some inactives read as strong as hits. activity change (mCherry), % (no concentration beside the values). 89,000 compounds, 0.01% hits. AID 1053133;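 active = mCherry past -33% and 40 or more points under the early reporter, replicates agreeing; inconclusive = past -33% without that gap or agreement; tested in A549 cells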;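 note: scaled between vehicle wells and reference inhibitor wells; 23 nL library stock went into each well; one replicate is shown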
Vaccinia stage Venus – further read-out of Vaccinia stage, marked with its call; activity change (Venus), %; measured here: Venus reporter, other viral stage;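 negative = less Venus signal; first of two replicates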
* hit, by the source's call; ? = inconclusive; nt = not tested or not shown.

SMILES | Vaccinia stage | Vaccinia stage Venus
O=C(CN1CCOCC1)N1CC(=O)N2[C@H](CO)[C@@H](c3ccc(/C=C/c4ccccc4)cc3)[C@@H]2C1 | -15.0 | -27.0
C[C@@H]1CCCCO[C@@H](CN(C)S(=O)(=O)c2ccc(Cl)cc2)[C@H](C)CN([C@H](C)CO)C(=O)c2cc(NC(=O)Nc3ccccc3)ccc2O1 | 2.2 | 9.8
O=C(Cc1ccncc1)NCC[C@H]1CC[C@@H](NC(=O)C2CC2)[C@H](CO)O1 | 3.2 | 0.6
C[C@H](CO)N1C[C@H](C)[C@@H](CN(C)C(=O)NC2CCCC2)Oc2ncc(C3=CCCCC3)cc2C1=O | -17.1 | -18.3
CC(C)NC(=O)N(C)C[C@@H]1Oc2cc(C#C[C@@H](C)O)ccc2S(=O)(=O)N([C@@H](C)CO)C[C@H]1C | 28.1 | 11.3
C[C@@H]1CN([C@@H](C)CO)C(=O)c2cc(C3=CCCCC3)cnc2O[C@@H]1CN(C)C(=O)Cc1ccncc1 | -16.9 | -9.3
CCCNC(=O)N1C[C@@H](O)COC[C@@H]2O[C@@H](CC(=O)NCc3ccc(Cl)c(Cl)c3)CC[C@H]21 | 2.6 | 1.7
CCCNC(=O)N(C)C[C@@H]1Oc2ncc(C#CCC3CCCC3)cc2C(=O)N([C@@H](C)CO)C[C@H]1C | -0.2 | -14.2
CO[C@H]1CN(C)C(=O)c2cc(NC(=O)CC(F)(F)F)ccc2OC[C@H](C)N(CC2CC2)C[C@@H]1C | -3.3 | 3.2
COc1ccc(NC(=O)Nc2ccc3c(c2)OC[C@H](C)NC[C@@H](C)[C@H](OC)CN(C)C3=O)cc1 | 2.6 | 4.7
COc1cccc(C(=O)Nc2ccc3c(c2)C(=O)N(C)C[C@H](OC)[C@@H](C)CN(C(=O)C2CCCC2)[C@@H](C)CO3)c1 | -6.8 | -8.5
C[C@@H]1CCCCO[C@@H](CN(C)C(=O)c2ccccc2)[C@@H](C)CN([C@@H](C)CO)C(=O)c2cc(NS(=O)(=O)c3cccs3)ccc2O1 | 10.6 | 1.1
C[C@@H]1CN([C@H](C)CO)C(=O)c2cc(/C=C/c3ccccc3)cnc2O[C@H]1CN(C)C(=O)c1cccnc1 | 19.0 | 6.7
C[C@@H]1CN([C@H](C)CO)C(=O)c2cc(NC(=O)CCCCCC(=O)Nc3ccccc3N)ccc2O[C@@H](C)CCCCO[C@H]1CN(C)Cc1ccc(Cl)c(Cl)c1 | -15.4 | -10.8
COCC(=O)N(C)C[C@H]1Oc2cc(-c3ccccc3F)ccc2S(=O)(=O)N([C@H](C)CO)C[C@H]1C | 3.3 | -2.8
CCNC(=O)C[C@@H]1CC[C@@H](NS(=O)(=O)c2ccc(F)cc2)[C@H](CO)O1 | 3.7 | 2.7
O=C(C[C@@H]1CC[C@H](NC(=O)C2CCC2)[C@@H](CO)O1)NCCCN1CCOCC1 | 14.5 | 12.5
COc1cccc(-c2cn(CC[C@H]3CC[C@H](NS(=O)(=O)Cc4ccccc4)[C@@H](CO)O3)nn2)c1 | -17.3 | -5.2
COc1ccc(NC(=O)Nc2cccc3c2O[C@H](CN(C)C)[C@@H](C)CN([C@H](C)CO)C3=O)cc1 | 16.0 | 8.7
O=S(=O)(c1ccccc1)N1CC[C@H]2[C@H](CO)Nc3ccc(C#Cc4cccc(F)c4)cc3[C@H]21 | -26.4 | -17.0
CO[C@H]1CN(C)C(=O)c2ccc(NC(=O)C3CC3)cc2OC[C@@H](C)N(C(=O)c2ccccc2F)C[C@@H]1C | 1.2 | -2.8
COc1ccc2c3c([nH]c2c1)[C@@H](CO)N(Cc1ccccc1)CC31CN(C(C)=O)C1 | 5.7 | 5.6
C[C@H](CO)N1C[C@H](C)[C@@H](CN(C)C(=O)C2CC2)Oc2cc(C#Cc3ccncc3)ccc2S1(=O)=O | -15.2 | -9.6
O=C(N[C@@H]1CC[C@@H](CCNS(=O)(=O)c2cccc(Cl)c2)O[C@H]1CO)c1ccccc1 | -5.9 | -6.6
C[C@H]1CN([C@@H](C)CO)C(=O)c2cc(-c3ccccc3)cnc2O[C@H]1CN(C)C(=O)Cc1ccccn1 | 24.1 | 2.7
C[C@@H](NC(=O)C[C@@H]1C[C@H]2c3cc(NC(=O)C4CCC4)ccc3O[C@H]2[C@H](CO)O1)c1ccccc1 | 7.8 | 3.1
CCN1[C@H](C(=O)NCCN2CCCCC2)[C@@H](CO)[C@@H]2Cn3c(ccc(-c4ccc(OC)cc4)c3=O)[C@@H]21 | 24.1 | 9.8
COc1ccc2c3c(n(C)c2c1)[C@H](CO)N(C(=O)Nc1ccc(F)cc1)CC31CCN(C(=O)CN2CCOCC2)CC1 | 3.1 | -8.9
Cc1ccc(S(=O)(=O)N(C)C[C@H]2Oc3ncc(-c4ccccc4)cc3C(=O)N([C@H](C)CO)C[C@@H]2C)cc1 | -31.9 | -23.5
COc1ccc(S(=O)(=O)Nc2ccc3c(c2)C(=O)N([C@H](C)CO)C[C@@H](C)[C@H](CN(C)CC2CC2)O3)cc1 | -2.2 | -2.5
Cc1noc(C)c1S(=O)(=O)Nc1ccc2c(c1)C(=O)N([C@@H](C)CO)C[C@@H](C)[C@H](CN(C)S(C)(=O)=O)O2 | 8.8 | 14.6
O=C(Cc1ccccn1)N[C@@H]1CC[C@H](CCn2cc(-c3ccccc3)nn2)O[C@@H]1CO | 0.7 | 2.1
C[C@@H]1CN([C@@H](C)CO)C(=O)c2cc(-c3ccccc3F)cnc2O[C@H]1CN(C)C(=O)C1CCC1 | -0.7 | 0.0
C[C@@H]1CN([C@@H](C)CO)C(=O)c2cc(C3=CCCCC3)cnc2O[C@@H]1CN(C)S(=O)(=O)c1cn(C)cn1 | 1.7 | 12.4
C[C@H]1CN([C@@H](C)CO)C(=O)c2cc(C#CC(C)(C)O)cnc2O[C@@H]1CN(C)C(=O)C1CCOCC1 | 13.5 | 1.6
COc1ccc2c3c(n(C)c2c1)[C@H](CO)N(C(=O)C1CCC1)CC31CN(C(=O)CN(C)C)C1 | 6.8 | 4.0
CN(C)c1ccc2c(c1)[C@@H]1C[C@H](CC(=O)NCc3ccc(Oc4ccccc4)cc3)O[C@@H](CO)[C@@H]1O2 | ? | nt
O=C(C[C@H]1CC[C@H](NC(=O)Nc2cccc(F)c2)[C@H](CO)O1)NCC1CC1 | -0.6 | -4.1
O=C(C[C@H]1CC[C@@H]2[C@H](COC[C@H](O)CN2C(=O)C2CC2)O1)NCc1ccccc1Cl | 7.6 | 4.5
C[C@@H]1CCCCO[C@@H](CN(C)C(=O)Cc2ccccc2)[C@@H](C)CN([C@@H](C)CO)C(=O)c2cc(NS(=O)(=O)c3cn(C)cn3)ccc2O1 | 31.6 | 14.5
CO[C@H](CN(C)C(=O)c1ccc2c(c1)OCO2)[C@@H](C)CN([C@@H](C)CO)S(=O)(=O)c1ccc(C)cc1 | -18.2 | -10.2
C[C@@H]1CN([C@H](C)CO)C(=O)c2cc(N(C)C)ccc2O[C@@H]1CN(C)Cc1ccc(C(=O)O)cc1 | 4.1 | 8.3
C[C@@H]1CN([C@H](C)CO)C(=O)c2cc(NC(=O)Nc3cccc4ccccc34)ccc2O[C@@H]1CN(C)S(=O)(=O)c1cccs1 | 30.1 | 15.0
O=C(c1cccnc1)N1C[C@H]2[C@@H](c3ccccc31)[C@H](CO)N2C(=O)Nc1cccc(F)c1 | -2.7 | 6.0
C[C@H]1CN([C@@H](C)CO)C(=O)CCCn2cc(nn2)CO[C@@H]1CN(C)Cc1ccccc1C(=O)O | 16.1 | 13.9
C[C@H](CO)N1C[C@H](C)[C@H](CN(C)S(=O)(=O)c2cn(C)cn2)Oc2ccc(NC(=O)Nc3cccc4ccccc34)cc2CC1=O | 8.1 | 3.9
O=C(C[C@H]1CC[C@@H]2[C@H](COC[C@H](O)CN2Cc2cccc(F)c2)O1)NCc1ccncc1 | -0.7 | -11.4
Cc1noc(C)c1S(=O)(=O)N(C)C[C@@H]1Oc2ccc(NS(=O)(=O)c3ccccc3)cc2CC(=O)N([C@@H](C)CO)C[C@@H]1C | 6.5 | 19.9
C[C@@H]1CN([C@H](C)CO)C(=O)c2cccc(NC(=O)Nc3ccc(F)cc3)c2O[C@@H]1CN(C)Cc1ccc(C(=O)Nc2ccccc2N)cc1 | 12.3 | 10.0
O=C(N[C@H]1CC[C@@H](CCn2cc(-c3ccccn3)nn2)O[C@@H]1CO)c1ccc(F)cc1 | -3.7 | 1.3
COc1ccc(NC(=O)N2C[C@H](O)COC[C@@H]3O[C@H](CC(=O)NCc4ccncn4)CC[C@H]32)cc1 | -0.6 | 7.9
COc1ccc(NC(=O)N2CCCCN3[C@H](C2)[C@H](c2ccc(-c4ccccc4C)cc2)[C@@H]3CO)cc1 | ? | nt
Cc1noc(C)c1S(=O)(=O)Nc1ccc2c(c1)C(=O)N([C@@H](C)CO)C[C@H](C)[C@@H](CN(C)C(=O)NC(C)C)OCCCC[C@@H](C)O2 | 6.5 | 9.4
CCS(=O)(=O)N1[C@H](CO)[C@@H](c2ccccc2)C12CN(C(=O)C1CC1)C2 | 9.7 | 3.6
CO[C@@H](CN(C)C(=O)C1CCOCC1)[C@@H](C)CN(C(=O)Nc1ccc(F)cc1)[C@@H](C)CO | 11.2 | 12.2
O=C(Nc1ccccc1)N1CCCCN2[C@H](CO)[C@@H](c3ccc(-c4ccccc4F)cc3)[C@@H]2C1 | ? | nt
COc1ccc(-c2cn(CCNC(=O)[C@H](Cc3ccccc3)NS(=O)(=O)c3ccc(C)cc3)nn2)cc1OC | -31.7 | -26.9
C[C@H]1CN([C@@H](C)CO)S(=O)(=O)c2ccc(C#CC3CC3)cc2O[C@H]1CN(C)C(=O)c1ccccc1 | -27.3 | -18.8
COc1cccc(CNC(=O)C[C@H]2CC[C@@H]3[C@@H](COc4ccc(NC(=O)c5cccs5)cc4C(=O)N3C)O2)c1 | -16.8 | -13.3
C[C@H]1CN([C@@H](C)CO)C(=O)Cc2cc(NS(C)(=O)=O)ccc2O[C@H]1CN(C)Cc1ccc(C(=O)Nc2ccccc2N)cc1 | 17.2 | 22.7

A section of the results above:
SMILES | Vaccinia stage | Vaccinia stage Venus
CO[C@@H](CN(C)C(=O)C1CCOCC1)[C@@H](C)CN(C(=O)Nc1ccc(F)cc1)[C@@H](C)CO | 11.2 | 12.2
O=C(Nc1ccccc1)N1CCCCN2[C@H](CO)[C@@H](c3ccc(-c4ccccc4F)cc3)[C@@H]2C1 | ? | nt
COc1ccc(-c2cn(CCNC(=O)[C@H](Cc3ccccc3)NS(=O)(=O)c3ccc(C)cc3)nn2)cc1OC | -31.7 | -26.9
C[C@H]1CN([C@@H](C)CO)S(=O)(=O)c2ccc(C#CC3CC3)cc2O[C@H]1CN(C)C(=O)c1ccccc1 | -27.3 | -18.8
COc1cccc(CNC(=O)C[C@H]2CC[C@@H]3[C@@H](COc4ccc(NC(=O)c5cccs5)cc4C(=O)N3C)O2)c1 | -16.8 | -13.3
C[C@H]1CN([C@@H](C)CO)C(=O)Cc2cc(NS(C)(=O)=O)ccc2O[C@H]1CN(C)Cc1ccc(C(=O)Nc2ccccc2N)cc1 | 17.2 | 22.7

(next part)
SMILES | Vaccinia stage | Vaccinia stage Venus
CCC(=O)N1[C@@H]2Cn3c(ccc(-c4ccccc4)c3=O)[C@H]1[C@@H](C(=O)N(C)C)[C@@H]2CO | 2.3 | 1.3
CO[C@@H]1CN(C)C(=O)c2ccc(NC(=O)c3ccccc3F)cc2OC[C@H](C)NC[C@@H]1C | 1.3 | 3.4
Cc1ccc(S(=O)(=O)N2CC[C@@H]3[C@@H](CO)N(C)c4ccc(-c5ccccc5F)cc4[C@@H]32)cc1 | ? | nt
COc1cccc(S(=O)(=O)N[C@H]2CC[C@H](CC(=O)NCc3ccccc3)O[C@@H]2CO)c1 | 2.1 | -3.5
O=C(C[C@H]1C[C@H]2c3cc(NC(=O)C4CCOCC4)ccc3O[C@H]2[C@@H](CO)O1)NCc1ccncc1 | 7.7 | 7.3
O=C(CC1CC1)N1CC2(C1)[C@H](c1ccccc1)[C@@H](CO)N2Cc1ccccn1 | 11.4 | 6.3
CO[C@H]1CN(C)C(=O)c2cc(NC(=O)c3nc4ccccc4s3)ccc2OC[C@@H](C)NC[C@@H]1C | -21.9 | -7.6
Cc1ccc(S(=O)(=O)N(C)C[C@@H]2Oc3c(NS(=O)(=O)c4cccs4)cccc3C(=O)N([C@H](C)CO)C[C@H]2C)cc1 | 13.4 | 8.9
C[C@@H]1CCCCO[C@@H](CN(C)CC2CC2)[C@@H](C)CN([C@H](C)CO)C(=O)c2cc(NS(=O)(=O)c3ccccc3)ccc2O1 | 10.3 | -1.2
O=C(C[C@@H]1CC[C@@H](NC(=O)Nc2ccc(C(F)(F)F)cc2)[C@@H](CO)O1)NCc1ccccn1 | -7.2 | -1.7
C[C@H]1CN([C@@H](C)CO)C(=O)c2cccc(NS(=O)(=O)c3ccc(F)cc3)c2O[C@@H]1CN(C)C(=O)Nc1ccc(C(F)(F)F)cc1 | -5.2 | 10.0
COc1ccccc1CN1[C@H](CO)[C@@H]2c3ccccc3N(C(=O)C3CCCCC3)C[C@@H]21 | ? | nt
CCC(=O)Nc1ccc2c(c1)OC[C@@H](C)N(C(=O)c1ccccn1)C[C@@H](C)[C@@H](OC)CN(C)C2=O | -1.2 | -4.4
Cc1ccc(S(=O)(=O)Nc2ccc3c(c2)C(=O)N([C@H](C)CO)C[C@@H](C)[C@H](CN(C)S(=O)(=O)c2cccs2)OCCCC[C@H](C)O3)cc1 | -27.5 | -17.9
C[C@@H]1CN([C@H](C)CO)C(=O)c2cc(NC(=O)Nc3cccc4ccccc34)ccc2O[C@@H](C)CCCCO[C@H]1CN(C)S(=O)(=O)c1ccc(F)cc1 | 16.6 | 26.8
C[C@H](CO)N1C[C@H](C)[C@H](CN(C)C(=O)Nc2cccc3ccccc23)Oc2ccc(NC(=O)Nc3ccc(F)cc3)cc2CC1=O | 16.0 | 20.8
CCCN(C)C[C@H]1OCCCC[C@@H](C)Oc2ccc(NS(=O)(=O)c3ccc(OC)cc3)cc2C(=O)N([C@H](C)CO)C[C@@H]1C | 7.5 | 5.3

Screening data (PubChem BioAssay)

A portion of the library; the hit share may differ from the screen's.
